RGS16-Gao = modulates binding between human RGS16 and Galphao; O15492+P09471; bead-based flow cytometry RGS16-Galphao binding, fluorescence; actives lie on both sides; binding response (% of control), % at 10 µM; 0.38% of 220,000 active;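 active means below 25% or above 175%, edge rows of some plates excepted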;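 further: Galphao activated by GDP with aluminum fluoride before binding; 100% = wells without compound and 0% = beads without RGS; some results beyond the cut were filed as inactive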
Target sequence (O15492 whole entry, looked up): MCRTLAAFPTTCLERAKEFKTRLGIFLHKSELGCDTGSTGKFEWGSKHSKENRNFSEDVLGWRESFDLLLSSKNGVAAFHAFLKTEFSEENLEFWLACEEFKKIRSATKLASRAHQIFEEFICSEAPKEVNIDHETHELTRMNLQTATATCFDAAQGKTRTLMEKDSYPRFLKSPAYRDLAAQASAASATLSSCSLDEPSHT
Target sequence (P09471 whole entry, looked up): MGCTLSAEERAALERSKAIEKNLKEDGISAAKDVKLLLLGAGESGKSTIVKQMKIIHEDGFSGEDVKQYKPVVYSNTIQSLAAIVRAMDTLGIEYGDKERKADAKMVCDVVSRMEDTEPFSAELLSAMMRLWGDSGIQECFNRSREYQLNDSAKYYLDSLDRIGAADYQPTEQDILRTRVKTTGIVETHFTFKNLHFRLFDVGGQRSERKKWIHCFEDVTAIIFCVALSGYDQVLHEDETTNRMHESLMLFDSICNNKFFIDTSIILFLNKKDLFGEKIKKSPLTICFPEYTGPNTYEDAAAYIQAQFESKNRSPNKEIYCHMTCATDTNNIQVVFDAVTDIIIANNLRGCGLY
GALR2 agonist = agonists of human galanin receptor 2 (GALR2) | GALR2-expressing cells, agonist activation read-out | activation, %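 (tested at 5 µM)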 | O43603 | 0.48% of 140,000 active;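 active means above mean plus 3 SD of all compounds, about 5% in these data, not always enough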;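 further: 0% = vehicle buffer wells and 100% = reference agonist at full effect; tested in CHO reporter cells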
Target sequence (O43603 whole entry, looked up): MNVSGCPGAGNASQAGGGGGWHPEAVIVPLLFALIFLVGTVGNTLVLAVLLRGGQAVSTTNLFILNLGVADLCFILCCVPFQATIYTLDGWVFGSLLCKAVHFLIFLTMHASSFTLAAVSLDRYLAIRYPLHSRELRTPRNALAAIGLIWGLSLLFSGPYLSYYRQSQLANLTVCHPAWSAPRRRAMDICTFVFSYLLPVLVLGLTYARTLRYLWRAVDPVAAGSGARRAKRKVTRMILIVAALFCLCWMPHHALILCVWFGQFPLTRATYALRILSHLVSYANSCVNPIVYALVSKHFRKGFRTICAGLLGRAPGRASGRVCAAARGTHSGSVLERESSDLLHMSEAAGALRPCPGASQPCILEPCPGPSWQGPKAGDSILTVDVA
PKD1 kinase inh = PKD1 (human) kinase inhibition. Q15139. PKD1 kinase fluorescence polarization assay. AID 797. 0.056% of 200,000 active. inhibition, %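 (about 10 µM by stock and volumes)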;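 active means inhibition of 50% or more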;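 further: controls were vehicle for no effect and a reference inhibitor for full effect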
Insulin prom inh = TRM-6 insulin promoter activity inhibition | TRM-6 cells (human fetal islet line), insulin promoter-eGFP reporter, imaging; reporter expression induced with tamoxifen | inhibition, % at 2 µM | 0.9% of 130,000 active | AID 1273;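 active means inhibition above the mean plus 3 SD, with well images judged a real hit on visual review, cut at about 60% in these data, passing the limit was not always enough; inconclusive means inhibition over the cutoff but images rejected on review; inactive means inhibition not above the cutoff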
HSV augment = increases HSV replication in cells; AID 1956; HSV replication augmentation in cells, fold increase; 0.005% of 220,000 active; maximum fold increase;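 active means peak rise of 1.5-fold or more in the series; inconclusive means self-fluorescent or not available for retest; tested in PC3 cells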;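 further: first round at 10 µM; read as green reporter fluorescence; hits show the peak of a series up to 25 µM; 1 = signal of infected wells without compound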
Insulin prom inh cell count = second read-out of Insulin prom inh, no call of its own (marks repeat the call); normalized cell count, %; measured here: cell count, toxicity; reference of the scale not given here;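 cells exposed to compound for 48 h; stained nuclei by imaging scaled within each plate; lower means fewer cells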
HSV augment primary fold = also measured in HSV augment; calls as there; fold increase; compound at 10 µM; measured here: primary screen fold increase 10 uM; tested in PC3 cells;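 GFP signal in the first replicate; 1 = infected wells without compound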
* = called active by the depositor; i = inactive; ? = inconclusive; . = no result given.

Start of the listing, in advance (5 entries):
SMILES | RGS16-Gao | GALR2 agonist | PKD1 kinase inh | Insulin prom inh | Insulin prom inh cell count | HSV augment | HSV augment primary fold
c1ccc(-c2cc3c(N4CCCCC4)ncnc3s2)cc1 | 99.9 | . | -5.9 | . | . | i | 1.04
COc1cc([N+](=O)[O-])ccc1-c1ccc(C(=O)Nc2ccc(NC(C)=O)cc2)o1 | 101.9 | 0.4 | -7.6 | . | . | i | 0.99
O=C(CNC(=O)c1cccc(F)c1)N/N=C/c1ccc(O)c([N+](=O)[O-])c1 | 109.5 | 1.6 | -3.7 | . | . | i | 0.92
COc1cccc(-n2c(Cc3cc(=O)[nH]c(=O)[nH]3)nnc2SCc2cccc(C(F)(F)F)c2)c1 | 116.4 | . | 2.8 | -7.1 | 173.9 | i | 0.92
O=c1oc2cc(OCc3ccc(C(F)(F)F)cc3)ccc2cc1-c1ccccn1 | 126.3 | -0.6 | -8.4 | 38.5 | 113.0 | i | 1.1

This part in full (from the top)
SMILES | RGS16-Gao | GALR2 agonist | PKD1 kinase inh | Insulin prom inh | Insulin prom inh cell count | HSV augment | HSV augment primary fold
c1ccc(-c2cc3c(N4CCCCC4)ncnc3s2)cc1 | 99.9 | . | -5.9 | . | . | i | 1.04
COc1cc([N+](=O)[O-])ccc1-c1ccc(C(=O)Nc2ccc(NC(C)=O)cc2)o1 | 101.9 | 0.4 | -7.6 | . | . | i | 0.99
O=C(CNC(=O)c1cccc(F)c1)N/N=C/c1ccc(O)c([N+](=O)[O-])c1 | 109.5 | 1.6 | -3.7 | . | . | i | 0.92
COc1cccc(-n2c(Cc3cc(=O)[nH]c(=O)[nH]3)nnc2SCc2cccc(C(F)(F)F)c2)c1 | 116.4 | . | 2.8 | -7.1 | 173.9 | i | 0.92
O=c1oc2cc(OCc3ccc(C(F)(F)F)cc3)ccc2cc1-c1ccccn1 | 126.3 | -0.6 | -8.4 | 38.5 | 113.0 | i | 1.1
CC(=O)c1ccc(-c2ccc([C@H]3[C@H]4C=CC[C@@H](C)[C@@H]4C(=O)N3Cc3ccccc3)c(F)c2)cc1 | 113.5 | . | . | . | . | i | 0.9
Cc1cc(C)n(C(=O)CNC(=O)c2ccco2)n1 | 92.7 | -2.2 | 3.0 | 7.1 | 40.1 | i | 1.28
COC(=O)c1ccc(NC(=O)COc2ccc(S(=O)(=O)NC(C)(C)C)cc2)cc1 | 111.7 | . | 2.4 | -442.9 | 60.5 | i | 0.99
O[C@H]1COC2C1OC[C@@H]2O (stereo partly specified) | 65.3 | -0.8 | -15.1 | 18.2 | 84.5 | i | 1.01
CCN(CC)C(=O)C(C(=O)c1cccc([N+](=O)[O-])c1)n1cc(Cl)ccc1=O (stereo unspecified) | 97.1 | . | 1.8 | 0.0 | 95.1 | i | 1.02
COc1ccc(C(=O)NCC(=O)OCC(=O)NCCC2=CCCCC2)cc1 | 96.8 | . | -5.0 | -53.3 | 113.9 | i | 0.99
C=CCn1c(SCC(=O)Nc2c(C)cccc2C)nnc1-c1cnccn1 | 100.0 | -0.2 | -4.3 | 16.7 | 188.9 | i | 0.9
CCCNC(=O)COC(=O)c1ccc(S(=O)(=O)N2CCCCCC2)cc1 | 92.9 | 0.0 | -2.5 | . | . | i | 1.32
O=C(Nc1ccc(N2CCOCC2)cc1)c1c(F)cccc1Cl | 100.1 | . | 6.2 | 50.0 | 145.8 | i | 0.93
C[C@@H](C(=O)NCc1ccc(S(C)(=O)=O)cc1)[C@@H]1C[C@@]1(C)[C@@H](NC(=O)OCc1ccccc1)c1ccccc1 | 97.8 | -1.8 | -5.1 | 0.0 | 90.7 | i | 1.05
CCOC(=O)N1CCC(=NNc2ccc(S(=O)(=O)N3CCOCC3)cc2[N+](=O)[O-])CC1 | 106.4 | -0.5 | -1.1 | -15.4 | 105.3 | . | .
Cc1cc(C(=O)CSc2n[nH]c(-c3ccccc3F)n2)c(C)n1Cc1cccs1 | 100.5 | -1.1 | 4.7 | -42.9 | 39.2 | i | 0.92
CC(C)(C)C(=O)N(Cc1ccccc1)c1ccccn1 | 93.5 | . | 0.2 | . | . | i | 0.97
Cc1ccc(CN2CCN(Cc3cnc(C)s3)CC2CCO)o1 (stereo unspecified) | 105.3 | . | -8.0 | . | . | i | 0.89
Cc1cccc(N2CCN(S(=O)(=O)c3c(C)[nH]c(=O)[nH]c3=O)CC2)c1C | 97.2 | 0.7 | 3.8 | -12.5 | 95.8 | i | 0.97
Cn1ccnc1C(=O)c1ccc(NN)c([N+](=O)[O-])c1 | 96.1 | . | 2.3 | . | . | i | 0.97
O=C(Oc1cc(=O)oc2c1c(=O)n1c3c(cccc23)CC1)c1ccc(F)cc1 | 99.1 | . | . | . | . | i | 1
C/C(=C\C(=S)Nc1ccccc1)Nc1ccc2ccccc2c1 | 100.3 | 0.1 | 1.8 | 13.3 | 115.2 | i | 1.05
COC(=O)NNC(=O)COc1cc(C)ccc1C | 92.9 | -0.2 | -10.7 | 1.6 | 64.0 | i | 1.03
CCOc1ccc(Nc2nc(NCc3ccco3)nc(N)c2[N+](=O)[O-])cc1 | 111.1 | . | . | . | . | i | 0.86
Cc1nc(C)n(C(C)CC(=O)O)n1 (stereo unspecified) | 95.2 | -0.4 | 1.3 | . | . | i | 0.95
CC(C)c1ccc(CN2CC(C(=O)O)CC2=O)cc1 (stereo unspecified) | 107.1 | -0.9 | 1.6 | . | . | i | 1.22
CC(C)(C)c1ccc(/C([O-])=C(/C(=S)NCc2ccco2)[n+]2ccccc2)cc1 | 99.8 | -0.9 | -1.2 | . | . | i | 0.99
Cc1nn(C(=O)/C(C#N)=C/N(C)C)c(C)c1C | 101.4 | . | 1.3 | 26.7 | 72.4 | i | 0.97
CCCn1c(=O)c(C(=O)NCc2cccnc2)c(O)c2ccccc21 | 14.2 | -1.6 | 2.8 | -18.2 | 104.8 | i | 0.83
Cc1[nH]c2ccc(F)cc2c(=O)c1SC(F)(F)C(F)F | 99.4 | -0.1 | -2.1 | . | . | i | 1.03
Cc1ccc(NC(=O)CN(C)C(=O)CSc2nc3ccccc3o2)cc1 | 100.1 | -2.4 | 5.9 | -2.8 | 96.5 | . | .
COc1ccc(C(=O)OCCN2CCOCC2)cc1OC | 62.8 | -1.3 | -0.4 | . | . | i | 1.01
COc1ccc(N2CC(C(=O)NCc3ccco3)CC2=O)cc1 (stereo unspecified) | 95.3 | . | -2.9 | 21.1 | 111.0 | i | 1.05
O=C(O)COc1ccc(/C=N/NC(=O)Cc2ccc(Cl)cc2)cc1 | 108.6 | . | . | . | . | i | 1.06
Cn1nc(NC(=O)C(F)(F)F)c2ncc(-c3ccc(Cl)cc3)nc21 | 104.6 | . | . | . | . | i | 0.94
Oc1ccc(N=Cc2ccc(O)c(O)c2)cc1 | -0.5 | -0.4 | 15.3 | -91.7 | 103.2 | i | 0.91
COc1cccc(NC(=O)n2nc(N)cc2-c2ccc(Cl)cc2)c1 | 102.1 | -1.2 | -9.2 | . | . | i | 0.91
CC1CCC2(CC1)NC(=O)N(Cc1nc(-c3ccccc3)no1)C2=O (stereo unspecified) | 110.9 | -3.1 | 5.5 | -18.2 | 108.2 | i | 0.86
Cc1ccc2c(c1)N(CC(=O)N1CCCCCC1)C(=O)CO2 | 99.1 | -2.4 | 2.0 | . | . | i | 0.92
CCC(=O)Nn1c(C)nnc1C | 105.2 | -0.3 | -10.0 | . | . | i | 1.03
COc1ccc(C(=S)N2CCN(c3cccc(Cl)c3)CC2)c(OC)c1 | 99.7 | . | -0.3 | . | . | i | 0.75
NS(=O)(=O)c1ccc(CNC(=O)/C=C/c2c(F)cccc2Cl)cc1 | 95.8 | . | 0.0 | . | . | i | 0.97
CCC(Sc1nncn1C)C(=O)Nc1nnc(-c2ccc(Cl)cc2)s1 (stereo unspecified) | 98.5 | 0.0 | -1.6 | . | . | i | 0.7
CCC(/C=N/NC(=O)C1COc2ccccc2O1)CC (stereo unspecified) | 107.8 | -0.1 | -5.1 | . | . | i | 0.89
O=C(O)c1cnn2c(C(F)(F)F)cc(-c3ccccc3)nc12 | 101.7 | -1.8 | 7.5 | -34.5 | 89.3 | i | 0.86
O=C(NC1=NCCS1)c1cc(-c2cccs2)nc2ccccc12 | 97.6 | . | . | . | . | i | 0.91
CCNC(=O)CN(c1ccc(C)cc1)S(=O)(=O)c1ccccc1 | 104.8 | -1.4 | -1.7 | 34.2 | 106.6 | i | 0.95
O=c1[nH]c2cc(NCCO)c([N+](=O)[O-])cc2[nH]1 | 103.1 | . | -3.3 | . | . | i | 1
CCC(=O)Nc1nc(C)c(-c2csc(Nc3ccccn3)n2)s1 | 97.1 | . | 8.0 | 52.9 | 99.4 | i | 0.7
CCCNC(=O)c1cc(SC)ccc1Cl | 98.7 | -1.7 | -5.6 | -6.8 | 125.4 | . | .
O=C(NNC(=O)c1cc(OCC(F)(F)F)ccc1OCC(F)(F)F)c1ccc(Cl)c(Cl)c1 | 97.6 | -0.2 | 1.5 | . | . | i | 0.94
CC(=O)N/C(=C/c1ccc(OC(F)F)cc1)C(=O)O | 116.5 | -2.0 | -8.9 | -39.3 | 98.8 | i | 1.12
Cc1ccc(C)c(NC(=O)CN(C)S(=O)(=O)c2ccc(F)cc2)c1 | 31.5 | -1.4 | -2.7 | . | . | i | 0.78
CC(NC(=O)c1sc2ccccc2c1Cl)C1CCCO1 (stereo unspecified) | 103.2 | -0.9 | -3.2 | -18.5 | 73.0 | i | 0.91
O=C(COc1cccnc1[N+](=O)[O-])Nc1ccc2c(c1)OC(F)(F)O2 | 104.2 | -0.4 | -12.9 | -26.7 | 46.7 | i | 0.87
CCOC(=O)c1ccc(NC(=O)C(=O)NCC2CCCO2)cc1 (stereo unspecified) | 99.6 | -3.2 | 12.5 | . | . | i | 0.9
O=c1c2ccccc2nnn1CSc1nnc(Nc2ccccc2)s1 | 99.4 | -1.6 | -3.4 | -13.3 | 104.3 | i | 1
COC(=O)c1ccc(NC(=O)CN2CCN(c3ccccc3C)CC2)cc1 | 102.2 | -2.1 | -2.0 | 7.7 | 139.3 | i | 0.97
COc1cc(C)c(NC(=S)Nc2ccc(Cl)c(Cl)c2)cc1OC | 103.2 | -0.9 | -10.9 | . | . | i | 1.27
Continued:
SMILES | RGS16-Gao | GALR2 agonist | PKD1 kinase inh | Insulin prom inh | Insulin prom inh cell count | HSV augment | HSV augment primary fold
Cc1ccnc(SCCn2c(N3CCC(C)CC3)nc3c2c(=O)n(C)c(=O)n3C)n1 | . | -0.9 | -6.9 | . | . | i | 0.88
CN(C)c1cccc(C(=O)OCCNC(=O)c2cccc(S(=O)(=O)N3CCOCC3)c2)c1 | 108.2 | . | . | . | . | i | 0.9
COC(=O)CNC(=O)c1cccs1 | 96.6 | -1.4 | -7.8 | 30.0 | 120.9 | i | 0.973
O=C(NC1CCCCC1)c1ccc(Cn2cc(Br)cn2)o1 | 103.8 | -1.4 | -4.4 | . | . | i | 0.98
Cc1cnc(C(=O)OCC(=O)NCCc2ccccc2)cn1 | 98.6 | -2.3 | -7.9 | 50.0 | 97.2 | i | 0.8
CCOC(=O)c1cc(C#N)c(SCC(N)=O)[nH]c1=O | 117.4 | . | . | . | . | i | 1.3
CC1(C)C(c2cccs2)=[N+]([O-])C2(CCCCC/C2=N\NC(N)=O)N1O (stereo unspecified) | 91.6 | -1.4 | -4.6 | 13.0 | 99.2 | i | 0.86
CSCC[C@H](NC(=O)COc1ccc(Cl)cc1Cl)c1nc2ccccc2[nH]1 | 101.1 | -2.8 | -0.6 | 3.1 | 141.0 | i | 0.92
O=S(=O)(c1ccc(Br)cc1)N1CCOC12CCCCC2 | 97.5 | . | -3.2 | . | . | i | 0.65
CC1CCCCC12NC(=O)N(Cn1nnc3ccccc3c1=O)C2=O (stereo unspecified) | 99.4 | -0.3 | 18.2 | -35.7 | 144.6 | i | 0.8
Cc1cc(C)cc(Nc2nc3c([nH]2)c(=O)n(C)c(=O)n3C)c1 | 99.3 | . | -1.9 | 57.9 | 118.7 | i | 0.99
CN(C(=O)c1ccncc1)C1CC(C)(C)N(O)C(C)(C)C1 | 101.0 | -1.5 | -7.5 | 48.1 | 68.1 | i | 0.91
COc1cc(/C=C2\SC(=S)N(NC(=O)c3ccncc3)C2=O)ccc1O | 98.5 | . | . | . | . | ? | .
Cn1c(SCCC(=O)O)nnc1-c1ccncc1 | 82.7 | -1.7 | -2.5 | 25.7 | 107.7 | i | 0.87
COc1nc(C#N)c(N2CCOCC2)o1 | 105.7 | -0.2 | -9.4 | 36.4 | 61.5 | i | 0.73
CCCCn1nc(CC(=O)O)c2ccccc2c1=O | 98.9 | -1.4 | -8.5 | . | . | i | 0.86
CCCCCCOc1ccc(OCC(O)CN2C(=O)NC(C)(C)C2=O)cc1 (stereo unspecified) | 102.8 | 0.0 | -5.2 | . | . | i | 0.97

Source: PubChem (several laboratories)

This is a random part of the collection; overall some 1.1% were active at least once.
